Assay outcomes (PubChem)
CBX7 AlphaScr – CBX7 inhibition, primary AlphaScreen; O95931; AlphaScreen His6-CBX7 / biotin-H3K27me3 peptide binding; active compounds read low; normalised signal (fraction of DMSO) (concentration not given with the values); 66,000 compounds, 1.1% hits; in the data active = normalised signal below about 0.5;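 note: 100 nL library stock added to about 20 µL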
Target sequence (O95931 whole entry, looked up): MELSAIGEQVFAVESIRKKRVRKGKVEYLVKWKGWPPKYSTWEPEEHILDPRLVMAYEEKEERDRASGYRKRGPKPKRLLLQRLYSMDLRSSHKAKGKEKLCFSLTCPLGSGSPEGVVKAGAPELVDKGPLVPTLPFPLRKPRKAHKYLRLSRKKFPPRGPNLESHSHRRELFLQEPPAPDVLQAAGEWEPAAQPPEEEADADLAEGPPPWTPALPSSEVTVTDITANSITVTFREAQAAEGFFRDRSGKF
CBX7 AlphaScr z-score – also measured in CBX7 AlphaScr; calls as there; z-score; measured here: z-score of CBX7 signal; some inactives read as strong as hits; reference of the scale not given here;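 same signal on another scale; lower means less binding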
* marks the source's active call; other numbers are inactive results.

SMILES	CBX7 AlphaScr	CBX7 AlphaScr z-score
OCc1nc2ccccc2n1CC(O)COc1ccccc1 (centres undefined)	1.2	0.5
COc1cc(OC)cc(-c2nnc(NC(=O)c3ccc(S(=O)(=O)N4CCCC(C)C4)cc3)o2)c1 (centres undefined)	1.1	1.3
Cc1nn(C)c(C)c1S(=O)(=O)N1CCCC(C(=O)Nc2ccc(Cl)c(C(F)(F)F)c2)C1 (centres undefined)	1.1	1.7
COc1ccc2nc(NC(=O)CCNC(=O)Cn3ccc4ccccc4c3=O)sc2c1	1	0.12
Cc1cc(C)cc(NC(=O)C(=O)NCCCN2CCOCC2)c1	0.94	-0.65
CCc1ccccc1NS(=O)(=O)c1ccc2c(c1)NC(=O)CC(=O)N2	1.1	2.7
Cc1nc2cc(-c3ccc(Cl)cc3)nn2c(C)c1CCC(=O)NCCN1CCCC1	1.5	10
Cc1ccc(C)c(C(O)(c2ccccc2)c2cnc(C(C)C)n2C)c1 (centres undefined)	0.94	-0.29
Cc1ccc(Nc2c(-c3ccc(O)cc3)nc3ncccn23)cc1	0.99	-0.36
CCN(CC)CCSc1nc(O)c(Cc2ccccc2)c(=O)n1-c1ccccc1	1	1.4
Cc1cc(OCC(=O)Nc2ccc(S(=O)(=O)Nc3ncccn3)cc2)ccc1Cl	1	0.65
Cn1c2ccccc2c2c(C(=O)NC3CCCCC3)cn(C3CCCCC3)c(=O)c21	1	0.59
CCCN(CCC)S(=O)(=O)c1ccc(C(=O)Nc2nnc(-c3ccccc3Cl)o2)cc1	1.1	0.55
COc1ccc(NC(=O)c2cc(-c3ccc(OC)c(OC)c3)on2)c(OC)c1	1.3	2.7
O=C(c1ccc2c(c1)N(Cc1ccc(F)cc1Cl)C(=O)CS2)N1CCCC1	1.1	1.5
COC(=O)Cc1nc(Nc2ccc(F)cc2)c2c(C)c(C)sc2n1	1	0.19
O=C(Nc1ccc(-c2nc3ccccc3o2)cc1)c1ccccc1Br	1.1	4
O=C(NCCC(c1ccccc1)c1ccccc1)c1cc(-c2ccccc2)nc2ccccc12	1	0.84
O=C(Nc1ccc(Br)cn1)c1cc(Br)ccc1Cl	0.84	-1.8
COc1ccc(CC(=O)Nc2ccc(-c3noc(-c4cccs4)n3)cc2)cc1	1.3	3.3
COc1ccc(Nc2ncc(C(=O)N3CCN(c4ccccn4)CC3)c3ccccc23)cc1	0.86	-2.4
C=CCNC(=O)c1cnn2c(C(F)(F)F)cc(-c3ccccc3)nc12	1.1	1.4
Cn1c(C(=O)O)c(CC(=O)Nc2ccc(F)cc2F)c2ccccc21	0.97	-0.031
Cc1cc(Nc2cccc(C(F)(F)F)c2)c2cccc(C)c2n1	1.1	0.87
COc1ccc(CCN2C(=O)CCC2(C)C(=O)NC2CCCC(C)C2C)cc1OC (centres undefined)	0.9	-1.2

Quoted from the listing for reference:
SMILES	CBX7 AlphaScr	CBX7 AlphaScr z-score
COc1cc(OC)cc(-c2nnc(NC(=O)c3ccc(S(=O)(=O)N4CCCC(C)C4)cc3)o2)c1 (centres undefined)	1.1	1.3
Cc1nn(C)c(C)c1S(=O)(=O)N1CCCC(C(=O)Nc2ccc(Cl)c(C(F)(F)F)c2)C1 (centres undefined)	1.1	1.7
COc1ccc2nc(NC(=O)CCNC(=O)Cn3ccc4ccccc4c3=O)sc2c1	1	0.12
Cc1cc(C)cc(NC(=O)C(=O)NCCCN2CCOCC2)c1	0.94	-0.65
CCc1ccccc1NS(=O)(=O)c1ccc2c(c1)NC(=O)CC(=O)N2	1.1	2.7
Cc1nc2cc(-c3ccc(Cl)cc3)nn2c(C)c1CCC(=O)NCCN1CCCC1	1.5	10
Cc1ccc(C)c(C(O)(c2ccccc2)c2cnc(C(C)C)n2C)c1 (centres undefined)	0.94	-0.29
Cc1ccc(Nc2c(-c3ccc(O)cc3)nc3ncccn23)cc1	0.99	-0.36
CCN(CC)CCSc1nc(O)c(Cc2ccccc2)c(=O)n1-c1ccccc1	1	1.4
Cc1cc(OCC(=O)Nc2ccc(S(=O)(=O)Nc3ncccn3)cc2)ccc1Cl	1	0.65
Cn1c2ccccc2c2c(C(=O)NC3CCCCC3)cn(C3CCCCC3)c(=O)c21	1	0.59
CCCN(CCC)S(=O)(=O)c1ccc(C(=O)Nc2nnc(-c3ccccc3Cl)o2)cc1	1.1	0.55
COc1ccc(NC(=O)c2cc(-c3ccc(OC)c(OC)c3)on2)c(OC)c1	1.3	2.7
O=C(c1ccc2c(c1)N(Cc1ccc(F)cc1Cl)C(=O)CS2)N1CCCC1	1.1	1.5
COC(=O)Cc1nc(Nc2ccc(F)cc2)c2c(C)c(C)sc2n1	1	0.19
O=C(Nc1ccc(-c2nc3ccccc3o2)cc1)c1ccccc1Br	1.1	4
O=C(NCCC(c1ccccc1)c1ccccc1)c1cc(-c2ccccc2)nc2ccccc12	1	0.84

Remaining list, next part
SMILES	CBX7 AlphaScr	CBX7 AlphaScr z-score
CC(C)c1ccc(C(=O)CC2(O)C(=O)N(Cc3ccc(Cl)cc3)c3ccccc32)cc1 (centres undefined)	0.74	-3.3
Cc1cccc(Nc2nc(-c3ccc(Cl)cc3)nc3ccccc23)c1C	1.2	1.8
COc1ccc(CNC(=O)C2CC(=O)N(c3ccc(OCC(=O)Nc4ccc(F)cc4)cc3)C2)cc1 (centres undefined)	0.92	-1.4
COc1cccc(-c2nc(CS(=O)(=O)CC(=O)Nc3ccc(Br)c(C)c3)c(C)o2)c1	1	0.091
Cc1cc(C)cc(CC2C(=O)N(c3cccc(Cl)c3)C(=O)C2C)c1 (centres undefined)	1.2	4.4
CCN(CC)CCNC(=O)CSc1nc2nc(C)c(Cc3ccccc3C)c(C)n2n1	0.99	-0.02
COc1cccc(NC(=O)N(CCCN2CCOCC2)Cc2cccnc2)c1	1.1	0.078
Cc1ccc(N(C)S(=O)(=O)c2ccc3[nH]cc(C(=O)NCCN(C)C)c(=O)c3c2)cc1C	1.5	5.1
CCOC(=O)C1CCN(C(=O)CN2C(=O)COc3ccc(S(=O)(=O)N4CCOCC4)cc32)CC1	0.97	-1.1
CCOc1ccccc1Nc1cc(C)nc2nc(C)nn12	1	0.25
COc1ccc(OCCn2c(C3CC(=O)N(c4cccc(Cl)c4C)C3)nc3ccccc32)cc1 (centres undefined)	0.95	-2.1
COc1ccc(CNC(=O)c2cc(Nc3cc(C)cc(C)c3)nc3ccccc23)cc1	1.1	3
Cc1nc2nc(SCC(=O)NC3CCCC(C)C3C)nn2c(C)c1Cc1ccccc1 (centres undefined)	1	0.29
Cc1nc2ccc(C(=O)NC3CCCCCCC3)cc2nc1C	1	0.48
COc1cccc(NC(=O)Cn2c(-c3cccc(OC)c3)nc3sc4c(c3c2=O)CCCC4)c1	1.1	1.3
O=C(Cn1nc(Cc2cccnc2)c2ccccc2c1=O)Nc1ccccc1Cl	0.91	-0.12
Cn1c(CCCNC(=O)c2ccc(F)cc2)nc2ccccc21	0.98	-0.6
O=C(Nc1cc(F)ccc1F)C1CCN(C(=O)c2cnn(-c3ccccc3)c2-n2cccc2)CC1	1.2	1.2
O=S(=O)(NCC(c1ccccc1)N1CCN(C(c2ccccc2)c2ccccc2)CC1)c1ccc(Cl)cc1 (centres undefined)	0.91	-3.2
Cc1cc(C)cc(OCC(=O)N(Cc2ccccc2)C2CCS(=O)(=O)C2)c1 (centres undefined)	0.95	-1.6
Fc1ccc(Nc2nc(-c3ccc(-c4ccccc4)cc3)cs2)cc1	0.89	-1.7
CCOC(=O)N1CCC(Nc2c(NCCCN(CC)c3cccc(C)c3)c(=O)c2=O)CC1	0.78	-2.6
CN(Cc1ccccc1)C(=O)C1CC(c2ccc(F)cc2)=NO1 (centres undefined)	1.1	2.5
O=C(NCc1ccccc1)c1csc2c1CCCCC2	1.1	1.9
Cc1ccc(-c2nc3c(C)cccn3c2Nc2ccccc2C)s1	0.93	-0.76

(next part)
SMILES	CBX7 AlphaScr	CBX7 AlphaScr z-score
O=C(COCc1cc(-c2ccc(F)cc2)on1)Nc1cccnc1Cl	1.1	0.91
COc1ccccc1CNC(=O)c1ccc2c(c1)N(Cc1ccc(C)cc1)C(=O)CS2	1	0.49
Cc1cccc(NC(=O)CSc2nc3ccccc3nc2Cc2ccc(F)cc2)c1	0.99	-0.043
CN(C)C(CNC(=O)NC1CCCCC1)c1cccnc1 (centres undefined)	1.1	0.65
CCCCc1ccc(NC(=O)Cn2cnc3c(nnn3-c3ccc(OC)cc3)c2=O)cc1	1.1	1.4
CC(C)NC(=O)CC1Oc2ccc(Cl)cc2NC1=O (centres undefined)	1	0.94
Cc1noc(C)c1S(=O)(=O)NCCCN1CCN(Cc2ccccc2)CC1	1.2	3
COc1ccc(Nc2nnc(Cc3ccncc3)c3ccccc23)c(OC)c1	1	0.4
Cc1nc(Nc2cnc3ccccc3c2)c2c3c(sc2n1)CCC3	1.1	0.53
COc1ccc(OC)c(-c2cc(C(=O)O)c3ccccc3n2)c1	1	1.1
O=C(Nc1ccccc1C(F)(F)F)N1CCN(c2ccc3nnc(-c4ccccc4)n3n2)CC1	0.76	-3.4
COc1cccc(-c2nc(S(=O)(=O)c3ccc(C)cc3)c(N3CCOCC3)o2)c1	0.78	-3.4
CC(C)(C)c1ccc(C(=O)Nc2nnc(-c3ccc(F)cc3)s2)cc1	1	0.79
O=C1c2ccccc2NC(c2ccccn2)N1c1ccc(Cl)cc1 (centres undefined)	0.82	-2.2
Cn1c(CNC(=O)c2ccc(F)cc2)nc2ccccc21	1.3	2.6
N#Cc1ccc(Cn2c(=O)n(Cc3ccccc3)c(=O)c3cccnc32)cc1	0.99	-0.23
O=C(O)c1cc(-c2ccccc2)n(-c2ccccc2Cl)n1	0.91	-0.98
CCCOc1ccc(N2C(=O)CC(N3CCC(C)CC3)C2=O)cc1 (centres undefined)	0.93	-1.1
CC(NC(=O)c1ccncc1)C(c1cccs1)N1CCN(Cc2ccccc2)CC1 (centres undefined)	1.1	0.63
COc1ccc(-c2cc3nc(C)c(CCC(=O)Nc4ccc(F)cc4)c(C)n3n2)c(OC)c1	1	0.35
Cc1ccc(S(=O)(=O)Nc2cc(-c3nn(C)c(=O)c4ccccc34)ccc2N2CCOCC2)cc1	0.92	-0.88
CCOc1ccc(N2C(=O)c3cccnc3C2Nc2ccc(C)c(C)c2)cc1 (centres undefined)	0.81	-5.2
CC1=NN(c2ccccc2)C(=O)/C1=C\c1cn(-c2ccccc2)nc1C12CC3CC(CC(C3)C1)C2	0.81	-4.7
CCC1=Nc2cc(C(=O)NCCC(C)C)ccc2Sc2ccc(Br)cc21	1	0.93
CCCSc1nnc2c(n1)OC=Nc1ccccc1-2	0.95	-0.6

Next records follow.
SMILES	CBX7 AlphaScr	CBX7 AlphaScr z-score
O=C(Nc1ccc(Cl)cc1)Nc1ccc(Nc2ccccc2)cc1	0.89	-0.5
CN(C)S(=O)(=O)c1cccc(-c2cn3ccccc3n2)c1	1	0.81
COc1ccccc1C(=O)CC1(O)C(=O)N(Cc2ccccc2Cl)c2ccccc21 (centres undefined)	1	0.75
O=C(CN1C(=O)CSc2ncccc21)NCCCN1CCN(c2ccccc2F)CC1	1	0.11
Cc1cc(Nc2ccc(Cl)cc2)nc2ccccc12	1.3	9.4
COc1ccc(-c2nc3nc(C)cc(C)n3c2Nc2c(C)cccc2C)cc1	0.9	-1.6
NC(=O)C1CCN(C(=O)c2n[nH]c(=O)c3ccccc23)CC1	1	0.031
Cc1ccccc1N(C)S(=O)(=O)c1ccc2[nH]cc(C(=O)NC3CCCCCC3)c(=O)c2c1	1.1	1.2
CCCC(=O)NCCCc1nc2ccccc2n1Cc1c(F)cccc1Cl	1.3	3.5
CCN(CC)C(=O)c1c(-c2ccccc2)noc1C	0.97	-0.97
C=CCn1c(Cc2c(C)[nH]c3ccccc23)nnc1SCC(=O)Nc1ccc(OCC)cc1	0.94	-1.7
COC(=O)c1ccccc1NC(=O)c1cc(-c2cccc(OC)c2)on1	1.1	0.55
COC(=O)c1c[nH]n2c(NC3CCCC3)c(-c3ccc(OC)cc3)nc12	0.11*	-1*
CC(=O)Nc1ccc2nc(NC(=O)C3CCCCC3)sc2c1	1	0.013
O=C(NCc1ccc2c(c1)OCO2)C1CC(=O)N(CCc2ccccc2)C1 (centres undefined)	0.99	-0.4
COc1cc(-c2nc(Nc3ccc(F)cc3)c3ccccc3n2)cc(OC)c1OC	0.99	-0.084
CCCOc1cccc(C(=O)N(Cc2cccs2)C2CCS(=O)(=O)C2)c1 (centres undefined)	0.97	-0.4
O=C(CN1C(=O)COc2ccc(Cl)cc21)N1CCOCC1	0.77	-2.7
CCN1CCN(c2ncc(C(=O)Nc3ccc(C)cc3Br)c3ccccc23)CC1	1.5	0.99
COc1ccccc1-c1cc(C(=O)Nc2cnn(Cc3ccccc3C)c2)no1	1.1	1.4
Cc1cc(C)cc(OCC(=O)Nc2ccc3oc(-c4cccnc4)nc3c2)c1	0.97	-0.88
O=C(c1ccc(NC2=NC3CS(=O)(=O)CC3S2)cc1)N1CCC(Cc2ccccc2)CC1 (centres undefined)	0.9	-1.8
COc1cc(OC)cc(-c2cc3nc(C)c(CCC(=O)NCc4ccc5c(c4)OCO5)c(C)n3n2)c1	1	0.39
Cc1ccc(-n2ncc(C(=O)Nc3ccccc3C(N)=O)c2C2CCN(C(=O)OC(C)(C)C)CC2)cc1	1	0.54
COc1ccc(-c2nn(C)c3sc(C(=O)Nc4ccc(C)c(F)c4)cc23)cc1OC	1	0.65

(cont.)
SMILES	CBX7 AlphaScr	CBX7 AlphaScr z-score
Cc1nc2sccn2c1-c1csc(Nc2ccc(S(N)(=O)=O)cc2)n1	1.1	0.085
COc1ccc(OCc2nc(C#N)c(NCc3ccc(C)cc3)o2)cc1	0.78	-6.1
CCn1cc(C(=O)NCCCN2CCC(C)CC2)c(=O)c2ccc(C)nc21	1.1	0.18
COc1ccc(C(=O)Nc2c3c(nn2-c2ccc(C)cc2)CSC3)cc1	0.92	-2
COc1ccc(CNC(=O)CSCc2nc(-c3cccc(Cl)c3)oc2C)cc1	0.99	-0.16
COc1cc(OC)c(NC(=O)c2cnc(N3CCN(c4ccccn4)CC3)c3ccccc23)cc1Cl	1.2	4.4
COc1cc2c(cc1OC)C(c1c(F)cccc1Cl)NCC2 (centres undefined)	0.89	-0.53
COc1ccc(-n2c(Cc3cc(=O)[nH]c(=O)[nH]3)nnc2SCC(=O)N2CCC(C)CC2)cc1	0.88	-1.8
CN(C)C(C(=O)NC1CCCC1)c1ccc(Cl)cc1 (centres undefined)	1	-0.17

This is a subset (hit frequency here may not be typical).
